Screening results from PubChem.
TRPML1 inh: qHTS for Inhibitors of the Human Mucolipin Transient Receptor Potential 1 (TRPML1) | TRPML1-inducible cells, Ca2+ dye fluorescence, FDSS; hits give low values; inhibition of EC80 agonist-evoked calcium signal | activity change, negative = inhibition, % (no concentration beside the values) | 0.02% of 390,000 active | AID 624415, 2012; in the data active means activity change below about -50%; inconclusive means about -30% to -50%; inactive means above about -30%;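 further: stimulus is agonist 54-4 at its EC80 concentration; on the % scale 0 is the no-effect control and ±100 the full control effect; compound concentration not given in the record; the text of the record puts the active cut at -80%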
Target sequence (Q9GZU1 whole entry, looked up): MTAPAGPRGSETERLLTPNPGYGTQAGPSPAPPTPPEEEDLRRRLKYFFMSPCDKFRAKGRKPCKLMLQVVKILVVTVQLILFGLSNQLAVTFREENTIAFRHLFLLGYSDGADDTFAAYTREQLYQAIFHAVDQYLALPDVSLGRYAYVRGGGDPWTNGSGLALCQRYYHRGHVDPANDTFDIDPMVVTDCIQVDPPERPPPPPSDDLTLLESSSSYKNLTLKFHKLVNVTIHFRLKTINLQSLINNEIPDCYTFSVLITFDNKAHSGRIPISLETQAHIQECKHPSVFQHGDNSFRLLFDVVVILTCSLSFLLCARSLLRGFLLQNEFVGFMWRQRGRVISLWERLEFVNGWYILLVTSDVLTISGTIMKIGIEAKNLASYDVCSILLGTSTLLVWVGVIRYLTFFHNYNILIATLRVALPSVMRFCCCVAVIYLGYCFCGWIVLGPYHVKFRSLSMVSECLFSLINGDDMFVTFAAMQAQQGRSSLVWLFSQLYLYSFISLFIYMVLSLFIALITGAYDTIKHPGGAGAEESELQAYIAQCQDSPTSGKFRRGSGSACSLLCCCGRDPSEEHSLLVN
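Tet-induced TRPML1-DL cells loaded with Ca8 no-wash calcium dye were read kinetically on FDSS. Compound addition was followed by EC80 agonist 54-4 (4 uM final); inhibition was read over 110 s.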
ClpP mod: qHTS Assay for Activators of ClpP; ATP-dependent Clp protease proteolytic subunit (Bacillus subtilis (strain 168)), P80244; purified B. subtilis ClpP, FRET peptide cleavage, 20 min; Potency, µM (titrated, usually from 57.5 µM), inactives show at the highest dose activity change, negative = active; 1.9% of 340,000 active; active = well fitted falling curve with a large enough effect; inconclusive = small, poorly fitted or top-dose-only effect; inactive = no such curve, though single readings can be large or run the other way; further: potency means the concentration at half of the fitted maximal effect; the source files actives as falling curves though it sought activators and does not explain the sign; nearly all actives have a fitted effect of over 65% in size; many hits overshoot -100%
Target sequence (P80244 whole entry, looked up): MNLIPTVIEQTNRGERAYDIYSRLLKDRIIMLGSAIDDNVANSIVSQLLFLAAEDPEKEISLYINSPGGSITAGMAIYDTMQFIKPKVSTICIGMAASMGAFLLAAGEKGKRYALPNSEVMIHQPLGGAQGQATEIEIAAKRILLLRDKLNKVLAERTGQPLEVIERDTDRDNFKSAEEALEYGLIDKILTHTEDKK
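Purified B. subtilis ClpP, 10 microg/mL final in Tris/HCl pH8 with KCl, BSA, glycerol and Tween-20, cleaved an Abz/nitrotyrosine-quenched decapeptide. Fluorescence (ex 320, em 430) was read at 0 and 20 min at room temperature. Delta was normalized to 5.8 microM ADEP and DMSO/no-enzyme controls.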
TRPV1 PAM: HTS Assay for Compounds that Act as Potentiators of the Vanilloid Receptor 1; potentiation, % at 8.33 µM; 0.02% of 320,000 active; TRPV1-expressing cells, Fluo-8 calcium influx, capsaicin EC20 potentiation; host cell line not named in the record; control for the full effect not named in the record; Transient receptor potential cation channel subfamily V member 1 (Homo sapiens), Q8NER1; active means potentiation above 80%; inconclusive means 30% to 80%; inactive means below 30%; further: 0% is about no effect
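Cells expressing TRPV1 were dye-loaded with Fluo-8 and read kinetically: 10 s baseline, 3 min after compound (agonist portion), then 2 min after EC20 capsaicin (allosteric enhancer portion). Calcium-bound dye fluorescence at 480/520 nm.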
gsp ag: qHTS for Agonist of gsp, the Etiologic Mutation Responsible for Fibrous Dysplasia/McCune-Albright Syndrome: qHTS; gsp mutant cells, cAMP HTRF, 30 min; control for the full effect not named in the record; 0.13% of 340,000 active; AID 624287, 2012; Potency, µM (doses to about 76.9 µM), for the others: at the top dose activation (cAMP increase), usual class: activators; active = well fitted activation curve with a large enough effect; inconclusive = small, poorly fitted or top-dose-only effect, or another doubt; inactive = no such curve, though single readings can be large or run the other way; cell line not stated here;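 further: phosphodiesterase inhibitor Ro 20-1724 added with compounds to block cAMP breakdown; potency means the concentration at half of the fitted maximal effect; nearly all actives have a fitted effect of over 60% in size; about a fifth of the inactives were tested at one dose only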
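Cells stably selected in G418 were plated at 2000/well, grown 16-24 hr, then given compounds in DMSO with the PDE inhibitor […] (300 uM solution added) for 30 min at 37C; cAMP was read by HTRF.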
Sfp inh: qHTS Assay for Inhibitors of Bacillus subtilis Sfp phosphopantetheinyl transferase (PPTase); 4'-phosphopantetheinyl transferase ffp (Bacillus subtilis), Q9F4F7; Biochemical Sfp PPTase activity, qHTS; Potency, µM, for the others: max response, negative = inhibition, hits mostly inhibitors; 3.5% of 310,000 active; AID 1490, 2009; active means well fitted inhibition curve with a large enough effect; inconclusive means small, poorly fitted or top-dose-only effect, or another doubt; inactive means no such curve, though single readings can be large or run the other way;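 further: the enzyme is Sfp with the accession as filed and its product quenches rhodamine fluorescence; potency means the concentration at half of the fitted maximal effect; 0% = enzyme reaction without inhibitor and -100% = no enzyme wells; top concentration of the series not given in the record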
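Buffer: 50 mM Hepes-Na pH 7.6, 10 mM MgCl2, 0.01% Nonidet P-40, 0.01% BSA. Enzyme 15 nM, pre-exposed to compound 15 min; substrates then added and fluorescence change tracked over 30 min.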
gsp antag: qHTS for Antagonists of gsp, the Etiologic Mutation Responsible for Fibrous Dysplasia/McCune-Albright Syndrome: qHTS. gsp-mutant cells, cAMP HTRF, 30 min; control for the full effect not named in the record. Potency, µM (series often up to 76.9 µM), without a hit: at the highest dose activity change, negative = inhibition, usual class: inhibitors. 0.4% of 340,000 active. AID 624288, 2012; active = falling curve of any shape with a large fitted effect; inconclusive = falling curve, mostly with a smaller effect; inactive = flat or rising curve; cell line not stated here;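 further: intracellular cAMP measured with PDE inhibitor Ro 20-1724 present during compound exposure; potency means the concentration at half of the fitted maximal effect; on the % scale 0 is the no-effect control and ±100 the full control effect; nearly all actives have a fitted effect of over 65% in size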
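G418-selected cells were plated in DMEM/10% FBS for 16-24 h at 37C, then treated with compounds plus the PDE inhibitor […] (300 uM solution added) for 30 min at 37C. Intracellular cAMP was measured by HTRF after 30 min lysis at room temperature.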
Menin-MLL FL inh: qHTS Assay for Inhibitors Targeting the Menin-MLL Interaction in MLL Related Leukemias: Competition With Fluorescein Labeled MLL-derived Peptide. 290,000 tested, under 10 active. Fluorescence polarization, fluorescein-MLL peptide displacement from menin. FP activity change, % at 61.4 µM; inconclusive = falling polarisation curve, or a change in total fluorescence; inactive = total fluorescence flat and polarisation flat or rising; no compound was filed as active; the % refers to the polarisation; negative = inhibition;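 further: % of control where 0% means no effect; inhibitors lower the polarisation; unlabelled MLL peptide was the positive control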
An asterisk follows results filed as active; ? = inconclusive; / = no result given; & = joins results of further samples; [ ] = dose if it differs, or a comment.

SMILES | TRPML1 inh | ClpP mod | TRPV1 PAM | gsp ag | Sfp inh | gsp antag | Menin-MLL FL inh
Cc1cc(C)n2nc(SCc3cc(=O)oc4cc(O)ccc34)nc2n1 | / | / | 5 | / | -15% | / | 1.5
COc1ccc(/C=C/c2ccccc2)cc1[C@H]1[C@H]2C=CC[C@@H](C)[C@@H]2C(=O)N1Cc1ccccc1 | 3 | ? | -17 | / | -5% | 0% | 4.2
CCOC(=O)N1CCN(C(=O)CNC(=O)c2nn(-c3ccc(OC)c(OC)c3)c(=O)c3ccccc23)CC1 | 9 | -2.1% | 7 | 7%[15.4 µM] | 16% | -5% | /
O=C(CN1CCN(Cc2ccccc2)CC1)N1CCCc2ccccc21 | -7 | -4.0% | 29 | -11% | ? | 9% | -5.0
CC(C)(C)NC(=O)C(c1ccco1)N(Cc1ccc2c(c1)OCO2)C(=O)Cn1nnc2ccccc21 (stereo not given) | 6 | -0.9% | 2 | -27% | 12% | -16% | 0.1
Nc1nc(-c2cccnc2)nc2sc3c(c12)CCCC3 | 32 | / | -4 | 25% | -1% | 6% | -0.1
O=C(CN1C(=O)NC2(CCOc3ccccc32)C1=O)c1ccc(F)cc1 (stereo not given) | -14 | -22% | -4 | -6%[15.4 µM] | / | -4% | /
Cc1noc(C)c1COC(=O)c1ccc(F)c(S(=O)(=O)N2CCOCC2)c1 | -2 | -0.4% | -10 | 3% | / | -5% | /
Cc1ccccc1-n1nnnc1SCC(=O)NCC1(N2CCOCC2)CCCCC1 | 26 | 0.1% | -5 | 13% | / | -5% | /
Cc1cccc(OCc2nnc(SCC(=O)N3CCN(C(=O)c4ccco4)CC3)n2C)c1C | 75 | 5.2% | 11 | -4% | 0% | -6% | -1.8
O=C1CCCN1CCCNS(=O)(=O)c1ccc(F)c(F)c1 | 3 | -0.7% | 6 | -40%[inhibitor] | 9% | 5% | /
COC(=O)NN=C1CCC(c2ccccc2)CC1 (stereo not given) | -5 | 0.1% | -7 | ? | 6% | 5% | /
Cc1c(C(c2ccc(Br)cc2)c2c(C)n(C)n(-c3ccccc3)c2=O)c(=O)n(-c2ccccc2)n1C | -6 | -3.4% | -15 | 5%[15.4 µM] | 12% | -7% | 3.2
COc1ccc(C(=O)N2CCc3cc4c(cc3C2C)OCCCO4)cc1 (stereo not given) | / | -9.4% | -1 | / | 15% | -14% | 1.2
CC(C)(C)[C@H]1COC(=O)[C@@H](Cc2ccc(F)cc2)C/C=C\C[C@@H](CC(=O)N[C@@H](CO)Cc2ccccc2)C(=O)N1 | -7 | 1.3% | / | ? | / | -12% | /
Cc1nn2c(N3CCOCC3)cc(C(C)(C)C)nc2c1-c1ccc(Cl)cc1 | -27 | / | -5 | 2% | 16% | 16% | -0.1
Cc1ccc(Cl)cc1OCC(=O)NCCOC(=O)Nc1sc(=S)n(C)c1C | 1 | 0.1% | 3 | -3% | -2% | -10% | 1.7
Cc1ccc(CN2CCNC(=O)C2CC(=O)NCC(F)(F)F)o1 (stereo not given) | -1 | / | ? | 11% | -4% | 9% | ?
CCOC(=O)c1cc(C(=O)NC(C)c2ccccc2)c(=O)[nH]c1C (stereo not given) | / | -16% | 8 | -40% | 2% | -3% | 7.3
COC(=O)C1(C)NC(c2cccs2)C2C(=O)N(c3ccc(F)cc3)C(=O)C21 (stereo not given) | -6 | -5.2% | 4 | -12% | 7% | 15% | 0.3
Cc1cccc(C)c1-n1cccc1/C=C1/C(=N)N2C(=NC1=O)SN=C2S(C)(=O)=O | 29 | / | 0 | 5%[15.4 µM] | 4% | ? | 13
COc1ccc(S(=O)(=O)N2CCCC(C(=O)NC3CCCC3)C2)cc1OC (stereo not given) | -8 | / | 9 | -21% | 16% | -6% | -0.7
COc1cccc(-c2nnc(SCC(=O)NCc3ccc4c(c3)OCO4)n2Cc2ccco2)c1 | 6 | -3.5% | 7 | 1% | 40µM* | -6% | 4.4
CC1CCCCC1NC(=O)CCn1c(=S)[nH]c2ccccc2c1=O (stereo not given) | -18 | 0.5% | / | -1% | / | / | /
Cc1ccc(S(=O)(=O)N(C)c2ccc(OCC(=O)NCC3(N(C)C)CCCCC3)cc2)cc1 | -4 | 0.9% | 5 | -5% | / | 1% | /
The list continues.
SMILES | TRPML1 inh | ClpP mod | TRPV1 PAM | gsp ag | Sfp inh | gsp antag | Menin-MLL FL inh
N#Cc1ccc(COC(=O)C2CCC(=O)N2)cc1 (stereo not given) | -10 | -2.6% | -6 | 12% | 13% | 15% | 1.1
CCn1cnc2cc(NCc3nc4ccccc4n3Cc3ccccc3)ccc21 | 48 | -5.2% | -21 | -13% | 14% | -6% | 0.9
COc1ccc(NC(=O)C2=C(C)Nc3ncnn3C2c2ccccc2C(F)(F)F)c(OC)c1 (stereo not given) | 2 | ? | -3 | 24% | -2% | 0% | -1.6
O=S(=O)(NC1CCCC1)c1cccc(-c2nnc(-c3ccccc3)o2)c1 | 10 | ? | 9 | -1% | -4% | ? | -4.6
O=C(Nc1ccon1)c1ccccc1F | 11 | -0.9% | 0 | 1% | 21% | 2% | 2.0
Cc1nc(N2CCCCC2)c2c(C)c(C(=O)Nc3cccc(C(F)(F)F)c3)sc2n1 | 20 | 4.1% | 26 | 21% | 13% | ? | -3.9
COC(=O)C1=C(C)NC(C)=C(C(=O)OC)C1C(=O)OCC(=O)Nc1ccc(C(C)=O)cc1 | 39 | / | 3 | -6%[15.4 µM] | 13% | -3% | 6.3
O=C(COC(=O)c1ccc[n+]([O-])c1)Nc1ccc([N+](=O)[O-])cc1Cl | -17 | -4.6% | / | ? | / | 6% | /
CCOC(=O)c1cccc(OC(=O)CCNC(=O)c2ccc(Cl)cc2)c1 | 18 | -1.7% | -21 | 8%[15.4 µM] | / | -16% | /
Cc1ccc(SCCNC(=O)c2ccc(C)c(S(=O)(=O)Nc3ccccc3C)c2)cc1 | 8 | 0.1% | 9 | -1% | 24% | -19% | -0.1
CC1(C)NC(=O)N(CC(O)COc2ccc(N3C(=O)c4ccccc4C3=O)cc2)C1=O (stereo not given) | -5 | -0.4% | 2 | -40%[inhibitor] | 7% | -4% | 2.3
Cc1cc(C)cc(NC(=O)[C@H](Cc2c[nH]c3ccccc23)NC(=O)[C@@H]2Cc3ccccc3CN2)c1 | / | -0.3% | 9 | / | 24% | 3% | 8.5
CCc1nc(N2CCN(C(=O)CCl)CC2)c2c3c(sc2n1)CC(C)CC3 (stereo not given) | 4 | / | 9 | ? | -25% | -18% | 3.9
CCC1c2ccc(C)n2CCN1C(=O)Nc1ccccc1OC (stereo not given) | -1 | -12% | 7 | 25% | -26% | -10% | ?
Cc1ccc(NC(=O)c2cc(S(=O)(=O)N3CCCCC3)c[nH]2)cc1F | 42&2 | -25%&-16% | -13 | -85%[inhibitor] | 10% | -9% | 2.3
Cc1ccc(S(=O)(=O)N2CCN(C(=O)COC(=O)/C=C/c3ccc(F)cc3)CC2)c(C)c1 | 0 | / | -5 | 56%[15.4 µM] | / | 6% | /
CCn1cc(C(=O)O)c(=O)c2cc(F)c(N3CCN(C(=O)Nc4ccccc4)CC3)cc21 | 24 | ? | 1 | 23% | 2% | ? | 6.3
O=C(/C=C/c1ccc(F)cc1)NCCNC(=O)/C=C/c1ccc(F)cc1 | -2 | / | -6 | -11%[15.4 µM] | 16% | 5% | -3.3
CC(C)OCCCNC(=O)C(Cc1ccccc1)NS(=O)(=O)c1ccc2c(c1)CCC(=O)N2 (stereo not given) | 18 | 1.4% | 4 | 0% | 8% | 16% | /
O=C(Nc1ccc2oc(=O)ccc2c1)c1cc([N+](=O)[O-])ccc1N1CCOCC1 | 48 | / | -5 | -5%[15.4 µM] | 2% | -6% | 4.5
NCC(=O)Nc1ccc(Br)cc1 | 15 | / | ? | ? | -14% | 9% | 0.1
COc1ccccc1C(=O)Nc1ccc(N2CCN(S(C)(=O)=O)CC2)cc1 | 46 | -17% | -14 | -15% | 10% | -14% | 1.1
CC1CCCN(CCCNC(=O)CCn2nc(-c3ccccc3)ccc2=O)C1 (stereo not given) | -14 | -22% | / | -4%[15.4 µM] | -14% | 1% | 8.1
CCn1nc(NS(=O)(=O)c2ccccc2[N+](=O)[O-])c2cc3ccc(C)cc3nc21 | 7 | -1.2% | 14 | -4% | -3% | -20% | /
O=C(COC(=O)c1ccco1)NCc1cccs1 | -2 | 1.1% | -3 | -2% | 12% | 10% | -0.5
COc1cccc(/C=N/NC(=O)CSc2ccccc2C)c1O | 40 | -4.7% | 1 | ? | 19% | -9% | /
Cc1ccc(NC(=O)CSCC(=O)Nc2nnc(C)s2)cc1 | 24 | 28µM* | -7 | -15% | / | 6% | /

A stretch from further up, for reference:
SMILES | TRPML1 inh | ClpP mod | TRPV1 PAM | gsp ag | Sfp inh | gsp antag | Menin-MLL FL inh
N#Cc1ccc(COC(=O)C2CCC(=O)N2)cc1 (stereo not given) | -10 | -2.6% | -6 | 12% | 13% | 15% | 1.1
CCn1cnc2cc(NCc3nc4ccccc4n3Cc3ccccc3)ccc21 | 48 | -5.2% | -21 | -13% | 14% | -6% | 0.9
COc1ccc(NC(=O)C2=C(C)Nc3ncnn3C2c2ccccc2C(F)(F)F)c(OC)c1 (stereo not given) | 2 | ? | -3 | 24% | -2% | 0% | -1.6
O=S(=O)(NC1CCCC1)c1cccc(-c2nnc(-c3ccccc3)o2)c1 | 10 | ? | 9 | -1% | -4% | ? | -4.6
O=C(Nc1ccon1)c1ccccc1F | 11 | -0.9% | 0 | 1% | 21% | 2% | 2.0
